Screening data from PubChem.
RGS16-Gao: modulators of RGS16 binding to Galphao, primary screen, biochemical, human proteins, multiplexed bead flow cytometry. Regulator of G-protein signaling 16 (Homo sapiens) + Guanine nucleotide-binding protein …. bead-based flow cytometry RGS16-Galphao binding, fluorescence; actives lie on both sides. binding response (% of control), % at 10 µM. AID 1441, 2008. 0.38% of 220,000 active;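 active means below 25% or above 175%, edge rows of some plates excepted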;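 further: Galphao activated by GDP with aluminum fluoride before binding; 100% = wells without compound and 0% = beads without RGS; some results beyond the cut were filed as inactive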
HSV replic up: enhancers of HSV replication in host cells, fold increase, host cell viability | HSV replication augmentation in cells | maximum fold increase | 0.005% of 220,000 active;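 active means peak rise of 1.5-fold or more in the series; tested in PC3 cells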;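 further: first round at 10 µM; read as green reporter fluorescence; hits show the peak of a series up to 25 µM; 1 = signal of infected wells without compound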
Insulin prom inh: inhibitors of insulin promoter-driven GFP, primary screen, imaging, TRM-6 cells (human fetal islet line), eGFP reporter, cell count | reporter expression induced with tamoxifen | 0.9% of 130,000 active | inhibition, % at 2 µM | AID 1273, 2008;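 active means inhibition above the mean plus 3 SD, with well images judged a real hit on visual review, cut at about 60% in these data, passing the limit was not always enough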
GALR2 agonist: GALR2 receptor agonists, primary screen, cell-based; Galanin receptor type 2 (Homo sapiens), O43603; GALR2-expressing cells, agonist activation read-out; activation, %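 (tested at 5 µM)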; 0.48% of 140,000 active; AID 803, 2007;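 active means above mean plus 3 SD of all compounds, about 5% in these data, not always enough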;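 further: 0% = vehicle buffer wells and 100% = reference agonist at full effect; tested in CHO reporter cells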
PKD1 kinase inh: inhibitors of human PKD1 kinase, biochemical, fluorescence polarization | AID 797, 2007 | PKD1 kinase fluorescence polarization assay | Serine/threonine-protein kinase D1 (Homo sapiens), Q15139 | 0.056% of 200,000 active | inhibition, %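 (about 10 µM by stock and volumes)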;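 active means inhibition of 50% or more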;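 further: controls were vehicle for no effect and a reference inhibitor for full effect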
Target sequence (Q15139 whole entry, looked up): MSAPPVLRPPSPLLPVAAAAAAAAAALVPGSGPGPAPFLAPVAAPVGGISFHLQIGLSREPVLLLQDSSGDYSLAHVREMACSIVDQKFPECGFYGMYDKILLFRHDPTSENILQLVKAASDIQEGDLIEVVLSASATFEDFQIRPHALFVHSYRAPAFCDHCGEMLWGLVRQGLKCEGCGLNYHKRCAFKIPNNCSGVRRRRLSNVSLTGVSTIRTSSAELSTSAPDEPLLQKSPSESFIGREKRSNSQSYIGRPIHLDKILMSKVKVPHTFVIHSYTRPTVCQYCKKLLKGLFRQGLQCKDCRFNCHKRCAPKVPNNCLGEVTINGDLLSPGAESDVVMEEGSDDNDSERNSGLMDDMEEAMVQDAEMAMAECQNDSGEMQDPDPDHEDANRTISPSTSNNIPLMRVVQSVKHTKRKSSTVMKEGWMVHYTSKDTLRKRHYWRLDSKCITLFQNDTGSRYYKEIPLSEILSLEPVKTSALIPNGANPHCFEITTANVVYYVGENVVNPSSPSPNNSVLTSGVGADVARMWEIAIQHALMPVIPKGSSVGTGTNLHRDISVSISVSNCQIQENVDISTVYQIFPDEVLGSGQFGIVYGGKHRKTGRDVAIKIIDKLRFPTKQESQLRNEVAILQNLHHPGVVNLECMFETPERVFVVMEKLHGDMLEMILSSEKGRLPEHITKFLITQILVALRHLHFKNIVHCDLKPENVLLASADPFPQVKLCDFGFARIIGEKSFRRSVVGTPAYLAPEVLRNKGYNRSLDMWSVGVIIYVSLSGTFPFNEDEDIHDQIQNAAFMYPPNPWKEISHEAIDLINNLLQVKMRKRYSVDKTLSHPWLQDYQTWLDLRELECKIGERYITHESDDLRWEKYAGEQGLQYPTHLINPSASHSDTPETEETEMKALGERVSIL
Insulin prom inh cell count: second read-out of Insulin prom inh, no call of its own (marks repeat the call); normalized cell count, %; measured here: cell count, toxicity; reference of the scale not given here;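 cells exposed to compound for 48 h; stained nuclei by imaging scaled within each plate; lower means fewer cells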
HSV replic up primary fold: also measured in HSV replic up; calls as there; fold increase; compound at 10 µM; measured here: primary screen fold increase 10 uM; tested in PC3 cells;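 GFP signal in the first replicate; 1 = infected wells without compound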
Starred values were filed as active, the others as inactive; i = inactive; nt = not tested or not shown; & = joins results of further samples. Not a hit list; any-hit rate near 1.1%.

SMILES	RGS16-Gao	HSV replic up	HSV replic up primary fold	Insulin prom inh	Insulin prom inh cell count	GALR2 agonist	PKD1 kinase inh
O=C(NCc1ccc2c(c1)OCO2)C(C(=O)c1ccccc1)n1cc(Cl)ccc1=O (stereo unspecified)	100	i	1.1	17	106	-0.5	-2
Cc1ccc(S(=O)(=O)Nc2cc(=O)[nH]c(SCC(=O)Nc3ccccc3Cl)n2)cc1	99	i	0.9	nt	nt	nt	-4
CC(C)(C)OC(=O)NCCNC(=O)c1cccs1	101	i	1.1	nt	nt	nt	nt
O=c1[nH]c2cc3c(cc2cc1C(c1nnnn1C1CCCCC1)N1CCSCC1)OCCO3 (stereo unspecified)	97	nt	nt	50	120	-1.5	-2
CCC(C)NC(=O)C1(C)CCC(=O)N1Cc1ccccc1OC (stereo unspecified)	121	i	0.85	-170	122	-1.6	-6
O=C1Nc2ccc(Cl)cc2C12Nc1ccccc1-c1nnc(SCc3ccccc3F)nc1O2 (stereo unspecified)	101	i	1	13	100	-0.7	0
O=C(N/N=C/c1ccco1)c1ccn[nH]1	103	i	0.88	-8	87	nt	-2
COc1cc(/C=N/NC(N)=O)c(Br)cc1OCC(=O)Nc1ccccc1C	107	i	1.1	0	78	0.2	-2
CC(=O)N(CCC(c1ccccc1)c1ccco1)Cc1cccs1 (stereo unspecified)	90	i	1.2	-33	43	-2.6	6
CC(C)(C)OC(=O)N[C@@H](CC(=O)OCc1ccccc1)C(=O)O	96	i	1.1	nt	nt	nt	7
O=C(Nc1ccc(Oc2cccnc2)nc1)c1ccc(C(F)(F)F)cc1	104	i	1	nt	nt	nt	nt
CCOC(=O)Cn1c(=NC(=O)c2sc3ccccc3c2Cl)sc2cc(S(N)(=O)=O)ccc21	104	i	0.8	-48	116	-0.1	-7
COc1ccc(CNc2cc(C)ccc2C)c(OC)c1OC	110	i	1	-41	109	-2.1	-7
CCNc1nc(SCCOc2ccccc2)nc(N(C)C)n1	98	i	0.91	18	169	-2.9	3
COc1ccc(S(=O)(=O)NCc2ccc3c(c2)cc(C)n3C)cc1	98	i	1	nt	nt	-6.3	-6
COCCNCc1ccccc1	101	i	1.1	-34	160	-3.0	0
CCCNC(=O)NC(=O)COC(=O)/C=C/c1cc(Br)ccc1F	104	i	0.98	nt	nt	nt	2
O=C(c1ccco1)N1CCN(c2nc(C(F)(F)F)nc3c2nnn3Cc2ccccc2)CC1	101	i	0.79	-14	191	-0.6	-6
Cc1ccc(N2CCN(C(=S)c3ccc(-c4ccccc4[N+](=O)[O-])o3)CC2)cc1	92	i	1.1	nt	nt	nt	nt
CC1(C)CC(=O)N(CC(=O)O)c2ccccc2S1	98	i	0.99	nt	nt	-1.3	-3
Cc1c(C(=O)N2CCc3ccccc3C2)oc2ccc(S(=O)(=O)N3CCCCCC3)cc12	56	i	0.87	-19	111	-0.5	1
C=CCOC(=O)C1=C(C)NC2(O)c3ccccc3C(=O)C12O (stereo unspecified)	99	i	0.99	nt	nt	-0.7	13
COc1ccc(OC)c(C(=O)Cn2nnc3ccccc3c2=O)c1	99	i	0.64	nt	nt	0.2	-14
CC1(C)Cc2c(oc3ncn4ncnc4c23)CO1	86	i	0.9	0	133	-0.5	14
CCN(CC)S(=O)(=O)c1cccc(C(=O)Nc2sc3c(c2C(N)=O)CCCC3)c1	101	i	0.66	5	68	-3.4	-6

Reformatted with bars between the fields: two of the compounds above.
structure | RGS16-Gao | HSV replic up | HSV replic up primary fold | Insulin prom inh | Insulin prom inh cell count | GALR2 agonist | PKD1 kinase inh
O=C1Nc2ccc(Cl)cc2C12Nc1ccccc1-c1nnc(SCc3ccccc3F)nc1O2 (stereo unspecified) | 101 | i | 1 | 13 | 100 | -0.7 | 0
O=C(N/N=C/c1ccco1)c1ccn[nH]1 | 103 | i | 0.88 | -8 | 87 | nt | -2

An excerpt of these results, with values under each structure:
Every second line gives: RGS16-Gao | HSV replic up | HSV replic up primary fold | Insulin prom inh | Insulin prom inh cell count | GALR2 agonist | PKD1 kinase inh
> CCNc1nc(SCCOc2ccccc2)nc(N(C)C)n1
  98 | i | 0.91 | 18 | 169 | -2.9 | 3
> COc1ccc(S(=O)(=O)NCc2ccc3c(c2)cc(C)n3C)cc1
  98 | i | 1 | nt | nt | -6.3 | -6
> COCCNCc1ccccc1
  101 | i | 1.1 | -34 | 160 | -3.0 | 0
> CCCNC(=O)NC(=O)COC(=O)/C=C/c1cc(Br)ccc1F
  104 | i | 0.98 | nt | nt | nt | 2
> O=C(c1ccco1)N1CCN(c2nc(C(F)(F)F)nc3c2nnn3Cc2ccccc2)CC1
  101 | i | 0.79 | -14 | 191 | -0.6 | -6

The listing continues:
SMILES	RGS16-Gao	HSV replic up	HSV replic up primary fold	Insulin prom inh	Insulin prom inh cell count	GALR2 agonist	PKD1 kinase inh
O=C(Nc1ccccc1)C1=C(O)CC(c2ccc(Cl)cc2)N2CCN=C12 (stereo unspecified)	61	i	0.77	28	94	0.2	-2
Oc1ccc(Br)cc1CNc1ccccn1	96	i	0.97	nt	nt	nt	nt
O=c1[nH]c(=S)[nH]nc1Cc1ccccc1	104	i	0.86	-61	76	-2.5	6
O=C(O)CCCC(=O)N(Cc1ccccc1)Cc1ccccc1	98	i	0.98	3	83	-0.5	-6
C/C(=N\NC(=O)c1cccc(Br)c1)c1cccc(NC(=O)c2ccc(C)o2)c1	99	i	1	nt	nt	-4.3	-7
CC(C)Oc1ccc(C(=O)N2CCCc3ccccc32)cc1	109	i	0.85	nt	nt	-1.6	-5
COc1cc(C(CCN2CCCCC2)c2c(OC)cc(OC)c3c(C)cc(=O)oc23)cc(OC)c1OC (stereo unspecified)	98	i	0.63	nt	nt	nt	nt
NC(=O)C1=C[C@@H](c2coc3ccccc3c2=O)C[C@@H](OCCCCO)O1	101	i	1.1	nt	nt	nt	-2
CNc1ncc(-c2nnnn2-c2ccccc2)c(-c2ccccc2)n1	107	i	0.94	nt	nt	nt	nt
CCOCCc1nnc(NC(=O)Cc2ccc(Br)cc2)s1	105	i	1	0	79	3.0	0
O=C(O)c1c[nH]c(=O)c2ccccc12	100	i	1.1	-8	51	nt	-18
CCOC(=O)CNC(=O)CSc1nc(-c2ccc(OC)cc2)ns1	91	i	0.97	8	129	nt	-2
Cc1cccc(CSC2=CS(=O)(=O)c3ccccc3N2)c1	99	i	0.95	-11	168	-1.1	-1
NC(=O)c1ccccc1NC(=O)c1ccccc1F	100	i	1	nt	nt	-1.6	3
CN(C)C1C(=O)c2ccccc2C1=O	90	i	0.94	34	153	-2.2	-2
COCCn1c(CCc2ccccc2)n[nH]c1=S	104	i	0.95	nt	nt	nt	-2
Cc1cccc2nc(CSc3nc4ccccc4o3)cn12	107	i	0.91	-29	77	-2.5	-8
CCC(c1nnnn1C1CCCC1)N1CCC(C(N)=O)CC1 (stereo unspecified)	95	i	1	33	65	nt	6
C=CCNCCCOc1ccc(Cl)cc1C(C)(C)C	108	i	0.57	nt	nt	nt	-8
CCN(C(=O)COC(=O)CNC(=O)C12CC3CC(CC(C3)C1)C2)C1CCS(=O)(=O)C1 (stereo unspecified)	96	i	0.94	48	114	-0.2	-5
Cc1cc(C)c(O)c(N)c1	101	i	0.88	nt	nt	nt	9
CCC1(C)Cc2c(sc3c2c(=O)n(C)c2nnc(SCc4ccccc4)n32)CO1 (stereo unspecified)	102	i	0.87	31	137	-0.7	1
Cn1cnnc1SC(C(=O)Nc1ccc(F)cc1)c1ccccc1 (stereo unspecified)	100	i	0.96	26	62	-1.1	-8
Cc1ccc(N=C(N(C)C)P(=O)(N(C)C)N(C)C)c(C)c1	104	i	0.92	-55	162	nt	-9
Cc1nn(-c2ccc(Cl)cc2)c(=O)c2c(C)noc12	91	i	0.9	nt	nt	nt	nt

(list continues)
SMILES	RGS16-Gao	HSV replic up	HSV replic up primary fold	Insulin prom inh	Insulin prom inh cell count	GALR2 agonist	PKD1 kinase inh
COc1ccc(NC(=O)N2CCCCC2c2cccnc2)cc1 (stereo unspecified)	104	i	0.84	47	129	-2.0	-15
Cc1ccc(Sc2sc(=O)n(C)c2S(=O)(=O)c2ccc(C)cc2)cc1	103	i	0.93	14	89	nt	-8
O=C(CSc1nc2c(sc3ccccc32)c(=O)n1CCO)NCC1CCCO1 (stereo unspecified)	95	i	0.95	55	111	-1.8	-8
COc1ccc(/C(=N/OC(C)=O)c2nccc3cc(OC)c(OC)cc23)cc1OC	98	i	0.85	nt	nt	nt	nt
O=C1CCCN1CC1CCN(Cc2nc(CC3CC3)no2)CC1	106	i	0.94	nt	nt	nt	0
O=C(Nc1cccc(Cl)c1N1CCOCC1)c1ccc([N+](=O)[O-])o1	97	i	0.8	nt	nt	nt	nt
Cc1ccc(CS(=O)(=O)CCC(=O)NCc2cccs2)cc1	101	i	1	-3	131	-1.1	-7
Cn1c(=O)cc(SCC(=O)Nc2cccnc2)c2ccccc21	67	i	1	nt	nt	-1.2	0
N#Cc1ccccc1NC(=O)c1ccc(-c2ccccc2Cl)o1	75	i	0.96	20	79	-0.2	-2
COc1c(Cl)cccc1-c1cn2ccccc2n1	104	i	0.89	nt	nt	nt	nt
CCOc1c(Cl)cc(CNCc2ccccn2)cc1OC	104	i	0.91	nt	nt	nt	-4
COc1cc(C(=O)OCCNC(=O)c2ccncc2)cc(OC)c1OC	97	i	0.91	nt	nt	-0.8	0
CN1C(=S)SC(N(O)C(=O)Nc2cccc3ccccc23)C1(C)C (stereo unspecified)	95	i	0.95	-5	119	-0.7	0
Cc1ccc(-c2noc(CCCc3ccccc3)n2)cc1	88	i	0.59	-63	106	-1.9	-10
Cc1cc(NC(=O)c2ccc(Br)c([N+](=O)[O-])c2)no1	99	i	0.93	-100	40	nt	-2
Cc1ccc(Nc2nnc(SCc3cc(=O)n4ccsc4n3)s2)c(C)c1	99	i	0.97	-27	47	-1.1	-1
COc1ccc(/C(N)=N/OC(=O)c2ccc3c(c2)OCO3)cc1OC	107	i	1.1	nt	nt	-3.1	0
CN(C)S(=O)(=O)c1cccc(NC(=O)COC(=O)c2cccn2C)c1	102	i	0.89	nt	nt	nt	-3
Brc1ccccc1-c1nnc2sc(-c3ccc4c(c3)OCCO4)nn12	107	i	0.71	24	105	0.3	-7
CCCCC(=O)Nc1ccc(NC(=S)NC(=O)CC(C)C)cc1OC	105	i	0.71	25	96	-1.2	-19
CNC(=O)/C(=C\c1cccc(Oc2ccccc2)c1)NC(=O)c1ccccc1	98	i	0.91	-24	98	-1.3	-18
Cc1cc(OCCOCCN(C)C)ccc1Cl	118	i	1	-24	91	-0.2	-11
Cc1cccc(N2CCN(C(=O)CN(C)S(=O)(=O)c3ccc4c(c3)CCC(=O)N4)CC2)c1C	97	i	0.7	nt	nt	-1.1	6
O=[N+]([O-])c1nn(-c2ccc3c(c2)OCCO3)n(O)c1=NCc1ccc(F)cc1	40	i	1	7	89	-1.6	-4
Cc1ccc(-n2c(Cc3noc4ccccc34)n[nH]c2=S)cc1	98	i	0.97	nt	nt	nt	-5

(list continues)
SMILES	RGS16-Gao	HSV replic up	HSV replic up primary fold	Insulin prom inh	Insulin prom inh cell count	GALR2 agonist	PKD1 kinase inh
Clc1ccc2c(c1)CCc1cccnc1C2=C1CCNCC1	83&101	i	0.78	-8	94	1.4	-11
O=C(COC(=O)/C=C/c1ccc(S(=O)(=O)N2CCOCC2)cc1)NCc1ccccc1	100	i	0.9	nt	nt	nt	0
CCOc1cc(/C=N/NC(=O)C(C)Sc2ccccn2)ccc1O (stereo unspecified)	94	i	1.1	nt	nt	-0.5	-2
O=C(CCCSc1nnc(Nc2ccccc2F)s1)N1CCOCC1	100	i	1.1	nt	nt	nt	6
CC(C)NC(=O)NC(=O)CSc1nncn1C	102	i	0.99	-17	97	-1.3	1
CCN1C(=O)CC(C(=O)Nc2ccc(F)cc2)SC1=Nc1ccc2c(c1)OCO2 (stereo unspecified)	95	i	0.93	-60	145	-1.5	-4
CCOC(=O)C(C(=O)OCC)C(C)C#CCN1CCCCC1 (stereo unspecified)	92	i	1.1	21	100	-1.3	-2
CN(C)/C=C1/C=C(c2ccccc2)OC1=O	100	i	0.98	11	102	-0.2	4
CCOC(=O)/C(=C\C=C1/Sc2cc(OCC)c(OCC)cc2N1CC)C(C)=O	128	nt	nt	-245	88	0.1	-44
COc1ccc(C(=O)CSc2nnc(COc3ccccc3)n2Cc2ccco2)cc1	100	i	0.79	31	82	-1.6	-5
CCN(CC)S(=O)(=O)c1cc(NC(=O)NCCCl)ccc1C	101	i	1.3	nt	nt	nt	nt
CC1CCCC(NC(=O)c2ccc3c(SCC(=O)O)c4c(nc3c2)CCC4)C1C (stereo unspecified)	103	i	0.95	nt	nt	nt	nt
CC(C)Cn1c(-c2csc3ccccc23)n[nH]c1=S	104	nt	nt	-20	94	-0.3	5
